Screening results from PubChem BioAssay.
Calb FLC: C. albicans growth inhibition with fluconazole, primary screen, CaCi-2 strain, Alamar Blue fluorescence | C. albicans CaCi-2 (fluconazole-resistant clinical isolate) + fluconazole, 48 h | AID 1979, 2009 | 300,000 tested, 0.57% active | growth inhibition, % (no concentration beside the values);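 active means most replicates above 75%; inconclusive means exactly half above 75%; inactive means most below 75%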;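 further: all wells also contain fluconazole at 8 µg/ml as a sub-toxic cotreatment; 0% = median of DMSO wells and 100% = median of geldanamycin control wells; wells of about 8 µL received 7.5 nL stock; the first replicate is given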
RanGTP-Impb inh: inhibitors of RanGTP-importin-beta interaction, primary screen, biochemical, FRET, CFP-Ran, YFP-importin-beta, homogeneous. Ran GTPase (GTP-bound) - importin-beta complex. cell-free CFP-Ran/YFP-importin-beta FRET ratio. inhibition, % (concentration not given with the values). 300,000 tested, 1.1% active. AID 2216, 2009;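 active means most replicates above 15%; inconclusive means exactly half above 15%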;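 further: 0% = DMSO wells and 100% = Ran loaded with GDP instead of GTP; wells of about 40 µL received 100 nL stock; the first replicate is given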
A1 inh: caspase 3/7 activation in MEF A1-2A-BIM cells, primary screen, A1 inhibitor project, cell-based, luminescence, HTS. caspase activation, % (concentration not given with the values). Caspase-Glo 3/7 luminescence, 3 h; percent of clofoctol response, vehicle zero. 330,000 tested, 0.066% active;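 active means over half of replicate activation scores above 10%, or exactly half above 10 with the replicate mean above 10; inconclusive means replicate mean below 10 yet half the replicates above 10; inactive means over half of replicates below 10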;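 further: wells of about 30 µL received 50 nL stock; many hits fall short of the cut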
Vif A3G: inhibitors of Vif binding to APOBEC3G peptide, primary screen, biochemical, TR-FRET, GST-Vif 1-94, biotin-A3G peptide, dose response retest (AID 1117319). TR-FRET GST-Vif / biotin-A3G peptide binding; higher % means a stronger effect; test concentration not given here; strong numbers were not always called active. inhibition, %; hits with a dose series show IC50 in µM. 260,000 tested, 0.57% active;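 active means above the screen mean plus three standard deviations and confirmed in dose response; inconclusive means results disagree or hit not tested in dose response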;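 further: Vif residues 1-94 fused to GST binding biotinylated APOBEC3G peptide 110-148; 0% = full assay without inhibitor and 100% = GST in place of GST-Vif; retest series ran down from 100 µM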
Beta apoptosis: inhibitors of cytokine-induced beta cell apoptosis, primary screen, luminescence; protection from apoptosis, % (no concentration beside the values); 300,000 tested, 0.8% active; INS-1E cytokine-induced death, ATP luminescence, 48 h; percent of positive-control rescue, neutral wells zero; AID 435005, 2010;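 active means all replicates at 75% or more, or half of them and the mean; inconclusive means half reach 75% but not the mean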;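 further: 0% = cytokine-treated negative control wells and 100% = positive control rescue; higher means more ATP so stronger rescue from cytokine killing; wells of about 40 µL received 100 nL stock; the first replicate is given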
AF4-AF9 inh: inhibitors of AF4 peptide binding to AF9, primary screen, biochemical, AlphaScreen, biotin-AF4 peptide, FLAG-AF9, single point; Protein AF-9 (Homo sapiens), P42568; inhibition, % at 10 µM; 350,000 tested, 0.47% active;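 active means every replicate reaching a set inhibition limit, whatever the replicate mean, cut at about 25% in these data; inconclusive means mean inhibition reaches that limit but some replicates miss it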;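 further: 0% = plate neutral control median and 100% = total signal loss; the record names both 10 and 1 µM as test concentration; the first replicate is given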
Target sequence (P42568 whole entry, looked up): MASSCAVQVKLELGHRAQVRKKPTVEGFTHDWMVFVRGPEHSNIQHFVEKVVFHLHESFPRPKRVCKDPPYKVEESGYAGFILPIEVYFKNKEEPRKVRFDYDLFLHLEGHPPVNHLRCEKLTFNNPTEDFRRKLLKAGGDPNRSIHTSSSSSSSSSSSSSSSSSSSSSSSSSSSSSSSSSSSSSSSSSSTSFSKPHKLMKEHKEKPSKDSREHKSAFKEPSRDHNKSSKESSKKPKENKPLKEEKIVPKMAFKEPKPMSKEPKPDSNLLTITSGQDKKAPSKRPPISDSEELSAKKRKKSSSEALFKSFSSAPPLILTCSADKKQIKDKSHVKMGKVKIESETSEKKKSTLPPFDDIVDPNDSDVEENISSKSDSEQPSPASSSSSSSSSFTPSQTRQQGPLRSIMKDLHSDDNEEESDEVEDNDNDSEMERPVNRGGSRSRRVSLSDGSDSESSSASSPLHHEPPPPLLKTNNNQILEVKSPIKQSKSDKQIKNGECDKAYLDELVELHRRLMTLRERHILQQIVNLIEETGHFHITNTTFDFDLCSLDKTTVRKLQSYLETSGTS
T cruzi repl: inhibitors of intracellular T. cruzi growth, primary screen, luminescence, NIH3T3 host cells; T. cruzi beta-gal in NIH3T3, 90 h; inhibition, % (test concentration not listed); 300,000 tested, 1.4% active;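 active means mean inhibition across valid replicates above about 55%, limit read from the data; inconclusive means mean below that limit but half or more replicates reach it; inactive means mean below it, under half of replicates reach it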;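 further: signal also drops with host cell toxicity which is not excluded here; 0% = plate median of DMSO wells and 100% = zero luminescence signal; higher percent means less beta-gal luminescence so fewer parasites; stock transfer was 50 nL into about 50 µL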
LANA-H2B inh: blockers of LANA interaction with H2A/H2B – biochemical, FP readout, HTS, primary screen; cell-free LANA-H2A/H2B peptide, fluorescence polarization; AID 2629, 2010; Protein LANA1 (Human herpesvirus 8 type P (isolate GK18)), Q9QR71; 320,000 tested, 0.6% active; inhibition, % (concentration not given with the values); in the data active means inhibition mostly above about 10%, no sharp cut-off; inactive means mostly below about 6.7%;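 further: stock transfer was 7.5 nL into about 10 µL; 0% = median of vehicle wells and 100% = median of positive control wells; one replicate is shown; the record names a cut of 25% in any replicate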
Active calls of the source: *; u = inconclusive; x = no result given; & = joins results of further samples.

SMILES	Calb FLC	RanGTP-Impb inh	A1 inh	Vif A3G	Beta apoptosis	AF4-AF9 inh	T cruzi repl	LANA-H2B inh
Cc1cccc(N2CC(C(=O)Nc3ccc4c(c3)OCCO4)CC2=O)c1C (stereo not drawn)	2	-0.9	-0.1	x	-1	0.8	-6	-2.0
O=C(Nc1ccc(F)c(Cl)c1)C1CCN(S(=O)(=O)c2cccnc2)CC1	4	-0.1	1.0	2%	1	-7.4	11	1.4
CCOC(=O)NC(=O)C(=CNNc1ncc(C(F)(F)F)cc1Cl)C(=O)NC(=O)OCC	-3	-5.7	-0.2	1%	-6	-1.2	-6	0.9
COc1ccc(/C=C2\SC(=S)N(CCCC(=O)Nc3cc(C)on3)C2=O)cc1OC	-16	4.7	-0.8	x	0	1.3	-11	-2.3
O=c1c2ccccc2cnn1Cc1n[nH]c(=S)n1-c1ccc(Cl)cc1	3	3.6	-0.9	-3%	-5	x	-4	-2.4
O=c1c2ccccc2sn1-c1nccs1	-13	7.8	x	2%	x	-14	5	x
COc1ccc(OC2CCN(S(=O)(=O)c3ccc(OC)cc3)CC2)cc1	12	5.4	-1.5	-3%	x	-14	16	0.7
O=C(Nc1ccc2[nH]c(=O)[nH]c2c1)c1c(F)c(F)c(F)c(F)c1F	4	u	0.6	22%	3	-2.4	-4	5.1
COc1ccc(NC(C)=O)cc1NC(=O)CSc1nnc(-c2ccncc2)n1C	6	-1.2	0.0	11%	-3	x	-5	-0.9
C#CCOCCOCCOCCNc1nc(N2CCN(C(=O)[C@H](CCC(=O)O)n3cc(CN)nn3)CC2)nc(N2CCN(C(=O)[C@H](CCCCN)n3cc([C@@H](N)CC(N)=O)nn3)CC2)n1	x	x	-0.1	-11%	3	0.9	x	x
COc1cc(/C=C/C(=O)OCC(=O)N2CCN(S(=O)(=O)c3ccc(C)cc3C)CC2)ccc1O	14	5.4	-0.2	27%	1	x	-10	2.3
Cc1oc(-c2ccccc2)nc1C(=O)O	-7	0.6	0.3	6%	-8	-1.8	4	-2.0
O=c1c2ccccc2nc(-c2ccccc2)n1Cc1ccccc1	14	-2.3	-2.1	0%	6	0.1	19	-1.0
CCC(=O)NC(c1ccccc1OC)c1ccc2cccnc2c1O (stereo not drawn)	103*	-1.9	0.1	8%	109*	x	60*	-8.1
CC(Oc1ccc2ccc(=O)oc2c1)C(=O)N1CCOCC1 (stereo not drawn)	-1	-0.5	0.2	-9%	4	-1.7	-8	0.7
CC1(C)COCN1S(=O)(=O)c1ccc(C(=O)Nc2nnc(-c3ccc(Cl)s3)o2)cc1	79*	-1.3	0.4	u	x	x	49	0.1
CCn1cc(Br)c(C(=O)Nc2ccc(OC)cc2)n1	-6	u	-1.5	-2%	7	x	7	3.3
CCC(=O)Nc1ccc(-c2ccc(NC(=O)CC)c(OC)c2)cc1OC	6	-3.4	-1.2	-8%	4	u	-15	1.8
CCc1nnc(NS(=O)(=O)c2ccc(N/C=C\C(=O)c3cccc4ccccc34)cc2)s1	-3	11	0.0	x	0	x	-1	1.4
O=C(COc1cccc2c1CCN(Cc1ccccc1F)C2=O)N1CCOCC1	-17	-0.6	0.2	-7%	-1	x	10	-1.0
COc1ccc(N2C(=O)CC(Sc3nnnn3-c3ccc(F)cc3)C2=O)cc1 (stereo not drawn)	-4	x	0.6	-17%	0	2.2	23	-5.5
O=c1cc(CO)oc(C(Nc2ccccn2)c2ccc(C(F)(F)F)cc2)c1O (stereo not drawn)	-1	-1.9	0.0	11%	-6	x	-14	-3.3
OC1CCCN(c2ncnc3c2nnn3Cc2c(F)cccc2Cl)C1 (stereo not drawn)	6	4.1	-0.1	3%	-3	-0.8	26	4.3
CCC(C)N(C(=O)CSc1nnc(COc2ccccc2F)n1N)C1CCS(=O)(=O)C1 (stereo not drawn)	-10	u	0.3	-3%	2	20	3	-0.1
COc1cccc(C(=O)Nc2ccc(-c3nnc(-c4ccco4)o3)cc2)c1	-3	u	0.6	0%	5	x	4	-2.1
Cc1cc(OCC(=O)OCC(=O)NC2CCCC2)ccc1Cl	x	x	-0.1	-3%	2	-5.2	x	-0.1
COCCCNC(=O)CN(C1CCCCC1)S(=O)(=O)c1ccc(C)cc1	u	5.4	-0.6	8%	x	4.9	-16	1.9
O=C(c1ccncc1)N1CCCC(N2CCN(c3ccc(F)cc3)CC2)C1 (stereo not drawn)	7	2.3	-0.5	-8%	-2	-2.1	-6	0.0
CCOC(=O)C1CCN(Cc2cc(=O)n3c(-c4ccccc4)csc3n2)CC1	7	3.9	0.0	8%	-1	-2.3	21	-2.4
Cc1ccc(-n2c(SCc3cc(=O)n4ccsc4n3)nnc2-c2cccnc2)c(C)c1	9	-0.9	0.2	20%&-13%	-6	3.9	0	1.6
CC1CCc2c(sc3nc(CSc4nnnn4C)[nH]c(=O)c23)C1 (stereo not drawn)	-3	4.0	-1.8	-2%	-6	8.0	13	0.5
COc1ccccc1-n1c(N)c(C(=O)NCC2CCCO2)c2nc3ccccc3nc21 (stereo not drawn)	2	57*	0.9	13%	-7	x	1	5.1
Cc1cc(C)cc(N=c2c([N+](=O)[O-])nn(-c3cccc(Cl)c3)n2O)c1	8	-1.8	-0.6	9%	-3	x	53	0.7
Cc1cc(C)n(CC(=O)N/N=C/c2ccc3c(c2)OCO3)n1	-1	2.8	-0.3	31%	-5	-2.8	-6	-2.2
Cc1ccc(-c2[nH]c3ccccc3c2SCCNC(=O)c2ccc(S(=O)(=O)N3CCOCC3)cc2)cc1	0	1.6	0.9	-5%	28	2.5	54	-1.8
CN1CCCN(C(=O)Cc2c(Cl)cccc2Cl)c2nc3ccccc3nc21	-2	22*	-0.5	23%	6	x	16	9.9
O=C(c1cccc(C(F)(F)F)c1)C1CCCN(C(=O)CCCn2cncn2)C1 (stereo not drawn)	15	1.2	0.4	-6%	-4	0.9	10	-1.1
Cc1ccc2[nH]c3c(=O)n(CC(=O)NCCCN(C)Cc4ccccc4)ncc3c2c1	17	2.3	-0.4	4%	-7	-4.1	23	2.5
COc1ccc(-c2nn(C)c3sc(C(=O)NCCN(C)C)cc23)cc1OC	4	0.3	-0.3	-13%	8	2.8	34	-2.3
COc1ccc(-c2cc(-c3ccccc3)no2)cc1	-10	0.6	-8.3	x	7	-3.4	-18	0.9
N#Cc1cc([N+](=O)[O-])ccc1NCCCn1ccnc1	-5	4.7	0.2	-13%	-4	1.3	4	0.1
COc1ccc(C)cc1NC(=O)CCS(=O)(=O)c1ccc2c(c1)oc(=O)n2C	6	-4.1	-0.2	x	-1	-9.1	0	4.7
CCc1nnc(NC(=O)c2ccc(S(=O)(=O)NCC(C)C)cc2)s1	4	-2.8	1.8	-6%	-1	x	-9	6.3
CC(=O)N1N=C(c2ccccc2)CC1c1cn(Cc2ccccc2)c2ccccc12 (stereo not drawn)	2	11	-0.1	-3%	9	x	10	-11
C/C(=N\NC(=O)c1ccco1)c1ccc(-c2ccccc2)cc1	-15	-3.9	-0.3	x	7	-1.1	-2	-1.3
COc1ccc(OC)c(C2CC(=O)C(C)C(c3cc(OC)ccc3OC)N2)c1 (stereo not drawn)	-7	11	0.4	-7%	-11	x	-4	-2.0
CCOc1ccc(CCNC(=O)CN2C(=O)NC(CCSC)C2=O)cc1OCC (stereo not drawn)	2	-0.5	-0.2	3%	-5	0.7	8	3.8
COCCn1nc2cc(C(=O)NCc3cc(C(F)(F)F)cc(C(F)(F)F)c3)ccc2c1OC	20	1.8	-0.4	2%	2	-1.6	-6	0.8
COc1ccccc1C(=O)NC(=O)COC(=O)c1nc2nc(C)cc(C)n2n1	4	1.1	0.8	-5%	x	-1.6	-4	2.4
COc1ccc(Br)c(C(=O)OCC(=O)NC(=O)NC2CCCC2)c1	x	x	-0.4	x	-11	-2.3	x	2.0

An excerpt from above in order of molecular weight, rising:
SMILES	Calb FLC	RanGTP-Impb inh	A1 inh	Vif A3G	Beta apoptosis	AF4-AF9 inh	T cruzi repl	LANA-H2B inh
COc1ccc(-c2cc(-c3ccccc3)no2)cc1	-10	0.6	-8.3	x	7	-3.4	-18	0.9
Cc1cc(OCC(=O)OCC(=O)NC2CCCC2)ccc1Cl	x	x	-0.1	-3%	2	-5.2	x	-0.1
O=C(Nc1ccc2[nH]c(=O)[nH]c2c1)c1c(F)c(F)c(F)c(F)c1F	4	u	0.6	22%	3	-2.4	-4	5.1
COc1cccc(C(=O)Nc2ccc(-c3nnc(-c4ccco4)o3)cc2)c1	-3	u	0.6	0%	5	x	4	-2.1
COCCCNC(=O)CN(C1CCCCC1)S(=O)(=O)c1ccc(C)cc1	u	5.4	-0.6	8%	x	4.9	-16	1.9
COc1ccc(OC)c(C2CC(=O)C(C)C(c3cc(OC)ccc3OC)N2)c1 (stereo not drawn)	-7	11	0.4	-7%	-11	x	-4	-2.0
O=c1cc(CO)oc(C(Nc2ccccn2)c2ccc(C(F)(F)F)cc2)c1O (stereo not drawn)	-1	-1.9	0.0	11%	-6	x	-14	-3.3
CC(=O)N1N=C(c2ccccc2)CC1c1cn(Cc2ccccc2)c2ccccc12 (stereo not drawn)	2	11	-0.1	-3%	9	x	10	-11
COc1ccc(/C=C2\SC(=S)N(CCCC(=O)Nc3cc(C)on3)C2=O)cc1OC	-16	4.7	-0.8	x	0	1.3	-11	-2.3
CCC(C)N(C(=O)CSc1nnc(COc2ccccc2F)n1N)C1CCS(=O)(=O)C1 (stereo not drawn)	-10	u	0.3	-3%	2	20	3	-0.1
COc1cc(/C=C/C(=O)OCC(=O)N2CCN(S(=O)(=O)c3ccc(C)cc3C)CC2)ccc1O	14	5.4	-0.2	27%	1	x	-10	2.3
C#CCOCCOCCOCCNc1nc(N2CCN(C(=O)[C@H](CCC(=O)O)n3cc(CN)nn3)CC2)nc(N2CCN(C(=O)[C@H](CCCCN)n3cc([C@@H](N)CC(N)=O)nn3)CC2)n1	x	x	-0.1	-11%	3	0.9	x	x

Continuation:
SMILES	Calb FLC	RanGTP-Impb inh	A1 inh	Vif A3G	Beta apoptosis	AF4-AF9 inh	T cruzi repl	LANA-H2B inh
CNc1nc(OCC(F)(F)F)nc(N2CCOCC2)n1	-3	-3.5	-2.2	-5%	-5	x	-15	-2.8
Cc1cccc(N2C(=O)C3CCC(c4ccccc4)CC3C2=O)c1 (stereo not drawn)	1	-1.0	0.4	-7%	1	-0.6	-2	x
COc1ccc(C2/C(=C(/O)c3ccc(F)cc3)C(=O)C(=O)N2c2ccccn2)cc1OC (stereo not drawn)	7	-0.1	1.6	-1%	-2	1.7	-13	3.1
Cc1ccccc1C1CCCN(C(=O)c2cc(COc3c(F)cccc3F)on2)C1 (stereo not drawn)	7	0.2	-0.3	-7%	8	-2.0	9	0.2
